# MT1-MMP act inh = blocks activation of human MT1-MMP; GFP/RFP ratio change, % at 20 µM; HT1080 RFP-PRO-GFP cells, GFP/RFP ratio fluorescence, overnight; percent of plate control window, DMSO zero; 360,000 compounds, 0.061% hits;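 active = GFP/RFP ratio change of at least 30% with cell ATP level not reduced by more than half and red fluorescence within 50% of control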; note: strong numbers were not always called active
#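 Read-out: GFP/RFP fluorescence ratio; Test system: RFP-PRO-GFP reporter HT1080 cells; Compound dosing: single-point 20 µM compound, 1% DMSO; Times: overnight compound exposure at 37 °C.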
# eIF4H FP inh = inhibitors of RNA binding by human eIF4H; 290,000 compounds, 0.94% hits; eIF4H fluorescence polarization binding assay; AID 2012; inhibition, % at 35 µM;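 active = 50% or more with normal probe brightness, or confirmed in later tests; inconclusive = above 50% with abnormal brightness, or retests that disagree; inactive = below 50% or failed in later tests; about a fifth of its hits are not listed in these tables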;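 note: calls also rest on retests at 20 µM and on dose response follow-up; 0% = protein and probe with vehicle and 100% = probe without protein; strong numbers were not always called active; many hits fall short of the cut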
# Yeast UUG start = yeast start codon fidelity modulation; activity score, % at 18.7 µM; S. cerevisiae UUG-firefly luciferase reporter, luminescence/redox ratio; 350,000 compounds, 0.13% hits;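 active = replicate mean at a twofold rise or more, about +100% in these data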;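 note: firefly luciferase made from a UUG start codon reports start codon fidelity; reporter light over untreated wells divided by growth signal over untreated wells; some hits fall short of that in this replicate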
# HIV Env fusion = blocks HIV Env-driven cell-cell fusion; HeLa-JRFL Env/CEM21 cell fusion, luciferase; inhibition, % at 12.3 µM; 360,000 compounds, 1.1% hits;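 active = mean replicate inhibition score of at least 50 and every replicate individually at or above 50; inconclusive = only one of the two criteria met; inactive = mean below 50 and not all replicates reaching 50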;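 note: 0% = plate neutral controls and 100% = maraviroc near 300 nM; one replicate is shown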
# PABP FP inh = blocks human PABP binding to poly(A) RNA. inhibition, % at 35 µM. 290,000 compounds, 1% hits. fluorescence polarization. P11940;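 active = 50% or more with normal probe brightness, or confirmed in later tests; inconclusive = above 50% with abnormal brightness, or retests that disagree; inactive = below 50% or failed in later tests; about a fifth of its hits are not listed in these tables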;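 note: calls also rest on retests at 20 µM and on dose response follow-up; controls were probe without protein and protein plus probe with vehicle; some compounds called inactive have numbers as strong as hits; many hits fall short of the cut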
# CSC inhib = blocks cancer stem cells | 300,000 compounds, 1.1% hits | inhibition, % at 7.5 µM | cancer stem cell-like cells viability, luminescence;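 active = mean at 75% or more and at least half the replicates too; inconclusive = mean and replicates disagree; tested in HMLE shEcad cells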;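 note: 0% = median of negative and 100% = median of positive control wells; the first replicate is given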
# Rce1 inhib = inhibitors of yeast Ras-converting enzyme; Q03530; yeast membranes, quenched prenylated peptide cleavage fluorescence; calls only; 290,000 compounds, 0.27% hits;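 active = fall in fluorescence gain of 50% or more versus controls, with final raw signal at or below 3038400; inconclusive = same 50% fall but final raw signal above 3038400; inactive = fall in fluorescence gain under 50%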;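 note: plate controls were neutral control wells for no effect and wells lacking membranes for full effect; tested at 10 µM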
# Target sequence (Q03530 whole entry, looked up): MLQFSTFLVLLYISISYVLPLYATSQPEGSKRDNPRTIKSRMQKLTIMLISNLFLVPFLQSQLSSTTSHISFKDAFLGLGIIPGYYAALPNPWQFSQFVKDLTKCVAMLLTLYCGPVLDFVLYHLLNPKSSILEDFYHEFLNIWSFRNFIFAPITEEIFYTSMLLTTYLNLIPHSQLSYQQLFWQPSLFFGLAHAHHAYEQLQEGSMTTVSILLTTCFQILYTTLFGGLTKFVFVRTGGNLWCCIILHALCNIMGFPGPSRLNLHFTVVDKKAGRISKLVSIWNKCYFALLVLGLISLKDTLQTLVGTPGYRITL
# MT1-MMP act inh RFP = further read-out of MT1-MMP act inh, marked with its call; RFP signal change, %; measured here: RFP expression control read;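 0 = vehicle wells; hits needed this value within 50% of zero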
# Starred values were filed as active, the others as inactive; i = inactive; u = inconclusive; x = no result given; & = joins results of further samples. These rows are one share of the data. The share of hits here may be higher or lower than overall.
SMILES,MT1-MMP act inh,MT1-MMP act inh RFP,eIF4H FP inh,Yeast UUG start,HIV Env fusion,PABP FP inh,CSC inhib,Rce1 inhib
COc1cccc(S(=O)(=O)Nc2ccc(C(=O)N3CCOCC3)cc2)c1,-3,1,-3,-17,-12,13,1,i
CN(CC(=O)Nc1ccccc1Cl)C(=O)CSc1nncn1C,-3,0,x,-13,7,x,-13,i
COc1cc(-c2cc(NC(C)=O)c3ncc(-c4ccc(C(C)=O)cc4)n3c2)cc(OC)c1OC,-3,9,x,-16,1,x,x,x
CC1CCCN(C(=O)c2ccc3c(c2)C(=O)N(CCC2=CCCCC2)C3=O)C1 (stereo not drawn),3,-8,-10,-11,3,-6,10,i
COc1cccc(N/C(SCc2ccccc2F)=C(/C#N)C(=O)NCc2cccs2)c1,-23,-20,-1,-12,x,-8,-5,i
Cc1cc(NC(=O)CSc2nnc(C(C)N(C)C)n2Cc2ccccc2)no1 (stereo not drawn),1,-1,-1,-12,-8,-1,x,x
COc1ccc(C(C)=O)cc1CC(=O)Nc1ccccc1-c1ccccc1,-1,-4,-6,-16,16,19,-5,i
CCOC(=O)N1CCC(NC(=O)CSCc2nc(-c3ccc(OC)cc3)oc2C)CC1,1,-8,-21,x,5,-8,-5,i
Cc1c(NS(=O)(=O)c2ccc3c(c2)c(=O)n(C)c(=O)n3C)c(=O)n(-c2ccccc2)n1C,1,8,-9,-17,28,1,3,i
O=C(Nc1ccncc1)Nc1ccccn1,-4,0,-2,0,x,-7,-12,i
CN(C(=O)c1ccc(NC(=O)Cc2ccc(NC(=O)C3CCCN(C(=O)C4CC4)C3)cc2)cc1)C1CCCC1 (stereo not drawn),3,2,x,-2,4,x,x,x
O=C(Nc1ccc2ncccc2c1)c1ccccc1Br,7,4,-8,-23,x,0,-17,i
O=S(=O)(c1ccc(NC(=S)N2CCOCC2)cc1)N1CCCCC1,1,-1,x,-19,5,x,x,x
Cc1nnc(NC(=O)c2cc3n(n2)C(C(F)(F)F)CC(C2CC2)N3)s1 (stereo not drawn),-1,2,2,0,x,-19,x,i
Cc1ccc(OCC(=O)N/N=C\c2ccncc2)c(C)c1,-1,2,-4,-9,25,3,-5,i
COc1ccc(S(=O)(=O)N(CC(=O)NC2CCCCC2)c2ccc(F)cc2)cc1,-2,-5,1,-12,16,10,-2,i
O=C(CSc1cn(CCNC(=O)c2ccccc2F)c2ccccc12)NCC1CCCO1 (stereo not drawn),4,-9,3,-12,x,-2,0,i
Cc1ccc(CN(C)C(=O)c2ccc3c(c2)NC(=O)CS3)o1,4,4,5,-32,-72,22,-12,i
COc1ccc(/C=N/NC(=O)CCn2cnc(-c3ccccc3)c2-c2ccccc2)cc1,10,-6,-1,x,-8,12,52,i
COc1ccc(C)cc1NC(=O)NC1CCCCCCC1,-4,-2,-6,1,12,6,-6,i
O=C(COc1ccc(S(=O)(=O)N2CCOCC2)cc1Cl)N1CCCC1,1,-1,-12,-5,-2,-15,-8,i
COC(=O)c1ccc2c(=O)[nH]c(COC(=O)c3c(-c4ccccc4)noc3C)nc2c1,0,-2,x,-5,41,x,-13,i
CCc1nnc(NC(=O)C2CCCN2S(=O)(=O)c2ccc(C)cc2)s1 (stereo not drawn),10,3,6,12,-11,-4,-11,i
O=C(CNC(=O)c1cccs1)N/N=C/c1cccc(Br)c1,0,0,4,-16,-22,3,x,i
CCOC(=O)N1CCC(N2CCN(S(=O)(=O)c3ccc(Cl)cc3)CC2)CC1,-2,-5,10,10,10,14,24,i
Cc1ccc(C(=O)c2ccccc2C(=O)OCC(=O)N2CCCC2)cc1,0,-3,x,-17,-8,x,-1,x
COc1ccc(NC(=O)N2CCN(S(C)(=O)=O)CC2)c(OC)c1,2,1,11,x,12,2,-4,i
CCNC(=S)N1CCC(C(=O)c2ccc(F)cc2)CC1,1,2,x,-12,6,x,x,x
O=C(CSc1ncc(-c2ccc(F)cc2)[nH]1)NCc1ccco1,-1,-2,4,-8,x,11,-4,i
COc1cc(CCC(=O)Nc2cccc(S(=O)(=O)N(C)C)c2)cc(OC)c1OC,8,-2,-1,-9,10,-5,5,i

# 2 entries from above, reformatted.
Cc1ccc(C(=O)c2ccccc2C(=O)OCC(=O)N2CCCC2)cc1
- MT1-MMP act inh: 0
- MT1-MMP act inh RFP: -3
- eIF4H FP inh: x
- Yeast UUG start: -17
- HIV Env fusion: -8
- PABP FP inh: x
- CSC inhib: -1
- Rce1 inhib: x
O=C(CNC(=O)c1cccs1)N/N=C/c1cccc(Br)c1
- MT1-MMP act inh: 0
- MT1-MMP act inh RFP: 0
- eIF4H FP inh: 4
- Yeast UUG start: -16
- HIV Env fusion: -22
- PABP FP inh: 3
- CSC inhib: x
- Rce1 inhib: i

# Later entries
SMILES,MT1-MMP act inh,MT1-MMP act inh RFP,eIF4H FP inh,Yeast UUG start,HIV Env fusion,PABP FP inh,CSC inhib,Rce1 inhib
Cc1nc2c3ccccc3nc(NNC(=O)CCC(=O)N3CCCC(C)C3)n2n1 (stereo not drawn),1,1,6,3,7,-11,-3,i
C/C(=N/NC(=O)OC(C)(C)C)c1ccco1,1,5,34,x,1,7,1,i
O=C(NCC(=O)N1CCCCCC1)c1ccc(Br)cc1,3,-1,-4,-5,-16,-7,-15,i
Cc1nn2c(N)c(-c3ccccc3)cnc2c1-c1ccccc1,-1,5,-9,-6,-199,-1,6,i
CC1CC1C(=O)OCC(=O)c1c(N)n(C)c(=O)n(C)c1=O (stereo not drawn),1,6,-11,x,7,0,2,i
Cc1cc(C)nc(SCCN2CCOCC2)n1,3,2,1,-22,x,-2,0,i
COc1ccc(CNC(=O)C(=O)NCCCn2ccnc2)cc1,1,0,-2,-15,-14,-8,1,i
O=[N+]([O-])c1cccnc1N1CCC(c2cc(-c3ccc(Cl)cc3)n[nH]2)CC1,6,-4,1,-9,-2,-2,101*,i
Cn1c(=O)c2c(nc(Oc3ccccc3)n2C)n(C)c1=O,-2,-1,-11&10,-11,x,2&1,-7,i
CCc1ccc(/C=C2/C(=O)N(C)C(=S)N2CC(=O)OC)s1,1,8,13,x,-9,8,-4,i
O=C(Nc1ccc(S(=O)(=O)N2CCOCC2)cc1)c1cc([N+](=O)[O-])ccc1Cl,-9,-7,13,16,5,15,-16,i
O=C(CCN1C(=O)c2cccc3cccc(c23)C1=O)Nc1ccon1,-2,-1,2,-9,-30,12,13,i
O=C(Nc1cccc(S(=O)(=O)NC2=NCCC2)c1)c1ccc(OC(F)F)cc1,3,-7,x,-1,2,x,x,x
Cc1ccc(OCc2nnc(SCC(=O)Nc3cc(C)on3)n2C)cc1,1,2,-3,x,x,2,0,i
Cc1nc(C)c(C(=O)NNC(=O)Nc2ccc(Cl)cc2)s1,-5,-1,-1,-6,15,8,-5,i
Nn1c(Cc2ccccc2F)nnc1SCn1nnc2ccccc2c1=O,4,6,-7,-4,10,7,5,i
CCCc1ccc(C(O)c2ncc(-c3ccc(OC)cc3)[nH]2)cc1 (stereo not drawn),2,0,x,-9,3,x,x,x
O=C(CCc1nnc(-c2ccsc2)o1)NCc1ccccc1OC(F)(F)F,1,-1,-1,-9,-4,-4,-5,i
O=C(O)C1CCCN1c1ncccc1[N+](=O)[O-] (stereo not drawn),-11,-2,u,x,-20,-21,-4,i
COc1ccccc1N1CCN(C(=O)CN2C(=O)c3ccccc3C2=O)CC1,-3,1,-19,x,-2,-6,-10,i
O=C(NCc1ccccc1)c1cccc(NC(=O)C2CCCCC2)c1,2,-1,x,-9,19,x,x,x
Clc1ncccc1-c1nc2ccccc2n1Cc1ccccc1,0,2,-10,-16,x,-1,-7,i
COc1ccc(C2CCCN2CC(O)COc2ccccc2C(C)C)cc1 (stereo not drawn),-5,2,-1,-14,20,-15,32,i
O=C1NCC(O)=C1C=NC12CC3CC(CC(C3)C1)C2,6&8,1&7,-11&7,x,x,4&5,-17&-17,i
COc1ccc(NS(=O)(=O)c2ccc3nc(COc4cccc5ccccc45)[nH]c3c2)cc1,2,-18,1,-15,4,u,80*,i

# Reformatted with tabs: entries from further up
structure	MT1-MMP act inh	MT1-MMP act inh RFP	eIF4H FP inh	Yeast UUG start	HIV Env fusion	PABP FP inh	CSC inhib	Rce1 inhib
O=C(NCC(=O)N1CCCCCC1)c1ccc(Br)cc1	3	-1	-4	-5	-16	-7	-15	i
Cc1nn2c(N)c(-c3ccccc3)cnc2c1-c1ccccc1	-1	5	-9	-6	-199	-1	6	i
CC1CC1C(=O)OCC(=O)c1c(N)n(C)c(=O)n(C)c1=O (stereo not drawn)	1	6	-11	x	7	0	2	i
Cc1cc(C)nc(SCCN2CCOCC2)n1	3	2	1	-22	x	-2	0	i
COc1ccc(CNC(=O)C(=O)NCCCn2ccnc2)cc1	1	0	-2	-15	-14	-8	1	i
O=[N+]([O-])c1cccnc1N1CCC(c2cc(-c3ccc(Cl)cc3)n[nH]2)CC1	6	-4	1	-9	-2	-2	101*	i
Cn1c(=O)c2c(nc(Oc3ccccc3)n2C)n(C)c1=O	-2	-1	-11&10	-11	x	2&1	-7	i
CCc1ccc(/C=C2/C(=O)N(C)C(=S)N2CC(=O)OC)s1	1	8	13	x	-9	8	-4	i
O=C(Nc1ccc(S(=O)(=O)N2CCOCC2)cc1)c1cc([N+](=O)[O-])ccc1Cl	-9	-7	13	16	5	15	-16	i
O=C(CCN1C(=O)c2cccc3cccc(c23)C1=O)Nc1ccon1	-2	-1	2	-9	-30	12	13	i
O=C(Nc1cccc(S(=O)(=O)NC2=NCCC2)c1)c1ccc(OC(F)F)cc1	3	-7	x	-1	2	x	x	x
Cc1ccc(OCc2nnc(SCC(=O)Nc3cc(C)on3)n2C)cc1	1	2	-3	x	x	2	0	i
Cc1nc(C)c(C(=O)NNC(=O)Nc2ccc(Cl)cc2)s1	-5	-1	-1	-6	15	8	-5	i
Nn1c(Cc2ccccc2F)nnc1SCn1nnc2ccccc2c1=O	4	6	-7	-4	10	7	5	i
CCCc1ccc(C(O)c2ncc(-c3ccc(OC)cc3)[nH]2)cc1 (stereo not drawn)	2	0	x	-9	3	x	x	x
O=C(CCc1nnc(-c2ccsc2)o1)NCc1ccccc1OC(F)(F)F	1	-1	-1	-9	-4	-4	-5	i
O=C(O)C1CCCN1c1ncccc1[N+](=O)[O-] (stereo not drawn)	-11	-2	u	x	-20	-21	-4	i
COc1ccccc1N1CCN(C(=O)CN2C(=O)c3ccccc3C2=O)CC1	-3	1	-19	x	-2	-6	-10	i
O=C(NCc1ccccc1)c1cccc(NC(=O)C2CCCCC2)c1	2	-1	x	-9	19	x	x	x
Clc1ncccc1-c1nc2ccccc2n1Cc1ccccc1	0	2	-10	-16	x	-1	-7	i
